High-throughput results deposited in PubChem BioAssay by National Center for Advancing Translational Sciences (NCATS).
Sfp inh: qHTS Assay for Inhibitors of Bacillus subtilis Sfp phosphopantetheinyl transferase (PPTase). Potency, µM, for inactives: max response, negative = inhibition, hits mostly inhibitors. Biochemical Sfp PPTase activity, qHTS. hit rate 3.5% among 310,000. 4'-phosphopantetheinyl transferase ffp (Bacillus subtilis), Q9F4F7; active means well fitted inhibition curve with a large enough effect; inconclusive means small, poorly fitted or top-dose-only effect, or another doubt; inactive means no such curve, though single readings can be large or run the other way;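 further: the enzyme is Sfp with the accession as filed and its product quenches rhodamine fluorescence; potency means the concentration at half of the fitted maximal effect; 0% = enzyme reaction without inhibitor and -100% = no enzyme wells; top concentration of the series not given in the record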
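After 15 min at room temperature with compound, 15 nM Sfp received 5 uM rhodamine-CoA plus 12.5 uM BHQ-2-ybbR (50 mM Hepes pH 7.6, 10 mM MgCl2). Rate came from the fluorescence difference over 30 min, ex 525/em 598 nm.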
Menin-MLL FL inh: qHTS Assay for Inhibitors Targeting the Menin-MLL Interaction in MLL Related Leukemias: Competition With Fluorescein Labeled MLL-derived Peptide | Fluorescence polarization, fluorescein-MLL peptide displacement from menin | 290,000 tested, under 10 active | AID 1766, 2009 | FP activity change, % at 61.4 µM; inconclusive = falling polarisation curve, or a change in total fluorescence; inactive = total fluorescence flat and polarisation flat or rising; no compound was filed as active; the % refers to the polarisation; negative = inhibition;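 further: % of control where 0% means no effect; inhibitors lower the polarisation; unlabelled MLL peptide was the positive control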
* marks the source's active call; other numbers are inactive results; ? = inconclusive; & = joins results of further samples; [ ] = dose if it differs, or a comment. These rows are one share of the data (hit frequency here may not be typical).

SMILES	Sfp inh	Menin-MLL FL inh
C=CC1=C2C=C(C3CC3)N(CCOC)C=C2C(=O)C(C)(OC(=O)c2ccco2)C1=O (stereo unspecified)	0%	-15[11.7 µM]
C/C=C(\C)C(=O)O[C@H]1C[C@@]2(C)CCC(C(C)C)C2(O)CC[C@@]1(C)O (stereo partly specified)	11%	1.0
O=C(c1ccco1)N1CCC[C@@]2(CCN(c3ccncc3)C2)C1	1%	-6.7
NC(N)=NCCNS(=O)(=O)c1cccc2cnccc12	-5%&-9%	3.4
Cc1ccc(NC(=O)c2cccc(N(C)C)c2)cc1NC(=O)c1ccc(O)cc1	12%&19%&-9%	-13
CC(C)C[C@H](NC(=O)CN(C)C(=O)[C@H](Cc1ccccc1)NC(=O)[C@H](Cc1ccccc1)NC(=O)[C@H](CCC(N)=O)NC(=O)[C@H](CCC(N)=O)NC(=O)[C@@H]1CCCN1C(=O)[C@H](CCCCN)NC(=O)[C@@H]1CCCN1C(=O)[C@@H](N)CCCN=C(N)N)C(=O)N[C@@H](CCS(C)(=O)=O)C(N)=O	4%	-5.5
CC(=O)Oc1cc(C)c(OC(C)=O)c2ccccc12	15%	-2.5
COc1cccc([C@@H]2Oc3ccc(Br)cc3C(=O)[C@H]2OC(=O)Nc2ccc(OC(F)F)cc2)c1	-11%	?
COCCn1c(=O)c(C)nc2cnc(OC)nc21	11%	4.6
Cc1c(C(=O)NN2CCOCC2)nn(-c2ccc(Cl)cc2Cl)c1-c1ccc(I)cc1	-11%&-10%	?
CC1(C)CCC[C@@](C)([C@H]2CC[C@]3(C)[C@@H]2[C@H](O)C[C@@H]2[C@@]4(C)CC[C@H](O)C(C)(C)[C@@H]4CC[C@]23C)O1	9%	1.1
COC(=O)N1CCC2(CC1)CCN(c1ccccn1)CC2	-1%	-4.2
COc1cc(NS(C)(=O)=O)ccc1Cc1c2ccccc2nc2ccccc12	-8%	-5.4
O=C(Oc1ccccc1)C1O[C@@H]1c1ccccc1 (stereo partly specified)	-3%	2.7
C=CCOC(=O)C(C(C)=O)C(NC(=O)OC)c1cccc(F)c1 (stereo unspecified)	-15%	-13[11.7 µM]
CCC1=C2CC[C@H]3C(=O)NC(=O)[C@H]3[C@H]2[C@@]2(C)C(=O)N(CC3CC3)C(=O)N2C1=O	1%	-1.0
COc1ccccc1CNc1ccnc(-c2ccccc2CN(C)C)n1	11%	-5.0
COc1cccc(-c2ccc3ncnc(N(C)C)c3c2)c1	?	0.1
COC1OC(CO)C(OC2OC(C(=O)O)C(OC3OC(COS(=O)(=O)O)C(OC4OC(C(=O)O)C(OC5OC(CO)C(OC6OC(C(=O)O)C(OC7OC(COS(=O)(=O)O)C(OC8OC(C(=O)O)=C[C@H](O)C8OS(=O)(=O)O)C(O)C7NC(C)=O)[C@@H](O)C6O)C(O)C5NC(C)=O)[C@@H](O)C4O)C(O)C3NC(C)=O)[C@@H](O)C2O)C(O)C1NC(C)=O (stereo partly specified)	14%	2.2
C[C@H]1C(c2cccc(Cl)c2)=NN(c2ccccc2)[C@@H]1CO	-12%	22[94.6 µM]
Cc1ccc(CNC(=O)[C@H](C)[C@@H]2C[C@@]2(C)[C@@H](NC(=O)OCc2ccccc2)c2ccccc2)o1	-9%	-1.8
N#Cc1ccc(CN2CC[C@@]3(CCCN(C(=O)c4cnccn4)C3)C2)cc1	27%	-0.4
Oc1cc2c(cc1O)[C@H](c1ccccc1)CNCC2	79µM*	-5.6
COc1ccc(C2=N[C@H](c3ccccc3)CO2)cc1	?	-2.7[94.6 µM]
COc1ccc(SCC(Cc2ccccc2)N2CCN(C)CCC2=O)cc1 (stereo unspecified)	-8%	0.2

Following part:
SMILES	Sfp inh	Menin-MLL FL inh
CCN1C(C)=C(C(=O)OC(C)C)C(c2ccccc2Cl)C2=C1COC2=O (stereo unspecified)	-2%	-6.4
COc1ccc(CNc2nc(-c3ccc4c(c3)OCO4)nc3ccccc23)c(OC)c1	?	-0.8
O=c1c(-c2ccccc2)nc2cncnc2n1Cc1ccccc1	0%	5.7
COc1cccc(Nc2ncc3nc(-c4cccs4)c(=O)n(-c4ccccc4)c3n2)c1	-22%	?
COC(=O)[C@@H]1C[C@H]2CC[C@H](O)C[C@H]2N1Cc1ccc(N2CCOCC2)cc1	9%	-0.5
CC(CCC(=O)O)C1CCC2C3C(O)C[C@@H]4CC(O)CC[C@@]4(C)C3CC(O)[C@]12C (stereo partly specified)	26%	1.9
COc1ccccc1CNc1ccnc(-c2cccc(C#N)c2)n1	-3%	2.2
N#Cc1c2c(c(N3CCN(c4ccccn4)CC3)n3c1nc1ccccc13)CCC2	6%	-0.3
COC(=O)c1ccc(C(/C=C/[C@@H](C)C(=O)N(C)C)NC(=O)OCc2ccccc2)cc1 (stereo partly specified)	4%	2.8
COc1ccc(C2C=C3CN(C(=O)OC(C)(C)C)S(=O)(=O)C3CC2OC(=O)c2cccc(C)c2)cc1 (stereo unspecified)	14%	2.5
COC(=O)[C@@H](NC(=O)O[C@@H]1C(=O)c2cc(Br)ccc2O[C@H]1c1ccc2c(c1)OCO2)C(C)C	-1%	10
CC(=O)N1CCC2(CC1)CN(c1ccccn1)C2	12%	4.2
Cn1cccc1C(=O)N1CCC[C@@]2(CCN(C(=O)Nc3cccc(C#N)c3)C2)C1	6%	0.1
CC1CC[C@@]2(OC1)OC1CC3C4CC[C@@H]5CC(O)CC[C@@]5(C)C4CC[C@]3(C)C1C2C (stereo partly specified)	8%	-2.0
CCN(CC)[C@@H](C)CN1c2ccccc2Sc2ccccc21	11%	-1.1[24.8 µM]
CCN(CC)CCOCCOC(=O)C(CC)(CC)c1ccccc1 (tested in a mixture with another compound)	-2%	-1.7
COC(=O)C=P(c1ccccc1)(c1ccccc1)c1ccccc1	-24%	-0.6
Cc1ccc(S(=O)(=O)N[C@H]2COC(=O)C/C=C\[C@@H](C)[C@H](NS(=O)(=O)c3ccc(C)cc3)COC(=O)[C@H](C)NC(=O)C/C=C\[C@H]2C)cc1	16%	-1.3[11.7 µM]
O=C(O)COc1ccc(C(=O)c2cccs2)c(Cl)c1Cl	14%&-10%	-0.2&8.9
CC1(C)OC(C(O)(c2cc(C(F)(F)F)cc(C(F)(F)F)c2)c2cc(C(F)(F)F)cc(C(F)(F)F)c2)C(C(O)(c2cc(C(F)(F)F)cc(C(F)(F)F)c2)c2cc(C(F)(F)F)cc(C(F)(F)F)c2)O1 (stereo unspecified)	29%	-1.4[11.7 µM]
COP1(=O)CC(O)C(O)C(COCc2ccccc2)O1 (stereo unspecified)	4%	2.5
COc1ccccc1-c1cc(=O)c2cc(O)ccc2o1	-3%	2.3
CS(=O)(=O)N1CCC2(CCN(c3cccc(-c4ccccc4)c3)CC2)CC1	-7%	-1.0
CC12C=C(/C=C/C=C/c3ccco3)C(C)(C1)C(/C=C/c1ccco1)CC2=O (stereo unspecified)	-27%	13[11.7 µM]
COC(=O)C(CC(C)C)NS(=O)(=O)c1ccccc1Br (stereo unspecified)	1%	-3.2

More records:
SMILES	Sfp inh	Menin-MLL FL inh
O=C(N/N=C1/C[C@@H](O)[C@@H](O)[C@@H]2[C@@H]3C(=O)N(Cc4ccc5c(c4)OCO5)C(=O)[C@H]3CC[C@@H]12)OCc1ccccc1	-2%	0.5[11.7 µM]
COc1ccc(Nc2nccc(NCCO)n2)cc1	7%	-2.6
C=C(C)C(=O)/C=C/c1ccc(C(F)(F)F)cc1	3%	0.4
COc1ccc(Oc2ncc3nc(-c4cccs4)c(=O)n(Cc4cccs4)c3n2)cc1	15%	7.6
Cc1noc(C)c1-c1cc(NCc2cccs2)ncn1	26%	0.2
O=C(c1cccc(F)c1)N1CCC2(CC1)CN(c1ccc(-c3ccccc3)cc1)C2	6%	1.6
CNC(=O)[C@@H](Cc1ccccc1)N(C)C(=O)[C@@H](Cc1ccc2ccccc2c1)N(C)C(=O)/C=C/CC(C)(C)N	9%	-2.1
COC(=O)NC1C=CCCC1C(C)=O (stereo unspecified)	-7%	-0.5
COc1ccc(C2COc3c(ccc(O)c3OC)C2)c(OC)c1O (stereo unspecified)	-11%	-2.0
O=C(O)Cc1cc(I)c(Oc2cc(I)c(O)c(I)c2)c(I)c1	0%	-2.7
CC(C)Nc1cccnc1N1CCN(C(=O)c2cc3cc(NS(C)(=O)=O)ccc3[nH]2)CC1	6%	5.1
COCCNc1ncnc2ccc(-c3ccccc3OC)cc12	10%	5.1
COc1cc(/C=C(\C#N)C(=O)Nc2nnc(C(F)(F)F)s2)ccc1OCc1ccc(C(F)(F)F)cc1C(F)(F)F	?	-1.2
CC(N)=NCCCC[C@H](N)C(=O)O	-28%	-25
C=CCCCCCCCCCCCC(O)CC(O)CO (stereo unspecified) (tested in a mixture with another compound)	17%	-3.7
CCNc1ncc2nc(-c3cc(F)cc(F)c3)c(=O)n(C3CC3)c2n1	15%	?
O=c1c(-c2cccc(Cl)c2)nc2cncnc2n1C1CC1	18%	-2.2
COc1cc(-c2ccc(N=Nc3ccc4c(S(=O)(=O)O)cc(S(=O)(=O)O)c(N)c4c3O)c(OC)c2)ccc1N=Nc1ccc2c(S(=O)(=O)O)cc(S(=O)(=O)O)c(N)c2c1O	4µM*	-15
N#Cc1ccccc1-c1nc(NCCN2CCOCC2)c2ccccc2n1	27%	-1.5
CC(=O)C(=O)O	-13%	-0.5
CC(C)(C)OC(=O)NCCCCC1=CC2=CC(=O)C(C)(OC(=O)c3cccs3)C(=O)C2=CO1 (stereo unspecified)	-2%	0.3
COc1cc(N)c(Cl)cc1C(=O)CCC1CCN(CCNS(C)(=O)=O)CC1	6%&6%	-10
CCNc1ncc2nc(-c3cn(C)c4ccccc34)c(=O)n(CCC#N)c2n1	-1%	?
CC1(C)O[C@@H]2O[C@H]([C@H](O)CO/N=C3/[C@H]4O[C@@H]4[C@@H](O)[C@H]4[C@H]3CCn3c(=O)n(-c5ccccc5)c(=O)n34)[C@@H](O)[C@@H]2O1	15%	-1.3[11.7 µM]
CCCCCCCCCCCCOCCCN	4%	-2.8

Later entries
SMILES	Sfp inh	Menin-MLL FL inh
COc1ccc2c(c1)OC[C@H]1c3cc4c(cc3O[C@@H]21)OCO4	13%	-0.1
CC[C@H](C)[C@H](NC(=O)[C@H](Cc1ccc(O)cc1)NC(=O)[C@@H]1CCCN1C(=O)[C@@H](N)CCCN=C(N)N)C(=O)N[C@@H](CC(C)C)C(=O)O	24%	0.8
COc1ccc(-n2c(=O)c(-c3cccs3)nc3cnc(N(C)C)nc32)cc1	12%	?
O=c1cc(-c2cc(O)c(O)c([C@@H]3O[C@H](CO)[C@@H](O)[C@H](O)[C@H]3O)c2)oc2cc(O[C@@H]3O[C@H](CO)[C@@H](O)[C@H](O)[C@H]3O)cc(O)c12	-8%	4.7
O=c1cc(-c2ccccc2)[nH]c2ccc(Cl)cc12	12%	4.7[94.6 µM]
COc1ncc2nc(-c3cccs3)c(=O)n(CCC#N)c2n1	10%	-15
C/C=C(/C)C(=O)O[C@H]1C[C@@]2(C)O[C@H]2[C@@H](OC(C)=O)C2(C)CC[C@@](O)(C(C)C)C12 (stereo partly specified)	18%	8.7
CC/C=C\C[C@H](O)/C=C/C=C\C/C=C\C/C=C\CCCC(=O)O	19%	-0.9
COCCNc1ncnc2ccc(-c3ccccc3C(F)(F)F)cc12	56µM*	5.8
Cc1cc2c3c(cccc3n1)C(=O)c1ccccc1-2	0%	?

Individual results from the list.
`CC(N)=NCCCC[C@H](N)C(=O)O` – Menin-MLL FL inh = -25
`COc1ccc(C2COc3c(ccc(O)c3OC)C2)c(OC)c1O` (stereo unspecified) – Menin-MLL FL inh = -2.0
`C[C@H]1C(c2cccc(Cl)c2)=NN(c2ccccc2)[C@@H]1CO` – Sfp inh = -12%

Profiles from above. Order of screens: Sfp inh	Menin-MLL FL inh
Shown for `O=c1cc(-c2ccccc2)[nH]c2ccc(Cl)cc12` : 12%	4.7[94.6 µM]
Shown for `CC/C=C\C[C@H](O)/C=C/C=C\C/C=C\C/C=C\CCCC(=O)O` : 19%	-0.9
Shown for `COc1ccc(-n2c(=O)c(-c3cccs3)nc3cnc(N(C)C)nc32)cc1` : 12%	?
Shown for `COCCNc1ncnc2ccc(-c3ccccc3C(F)(F)F)cc12` : 56µM*	5.8
Shown for `COc1ccc2c(c1)OC[C@H]1c3cc4c(cc3O[C@@H]21)OCO4` : 13%	-0.1
